Cruzain noTriton: blocks cruzain activity in detergent-free assay; P25779; purified cruzain, Z-FR-AMC fluorescence, no detergent; 2.3% of 200,000 active; Potency, µM, without a hit: max response, negative = inhibition, most hits filed as inhibitors;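 note: plate controls were enzyme without inhibitor for no effect and buffer without enzyme for full effect; nearly all actives have a fitted effect of over 40% in size; top concentration of the series not given in the record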
Target sequence (P25779 123-467 limits assumed): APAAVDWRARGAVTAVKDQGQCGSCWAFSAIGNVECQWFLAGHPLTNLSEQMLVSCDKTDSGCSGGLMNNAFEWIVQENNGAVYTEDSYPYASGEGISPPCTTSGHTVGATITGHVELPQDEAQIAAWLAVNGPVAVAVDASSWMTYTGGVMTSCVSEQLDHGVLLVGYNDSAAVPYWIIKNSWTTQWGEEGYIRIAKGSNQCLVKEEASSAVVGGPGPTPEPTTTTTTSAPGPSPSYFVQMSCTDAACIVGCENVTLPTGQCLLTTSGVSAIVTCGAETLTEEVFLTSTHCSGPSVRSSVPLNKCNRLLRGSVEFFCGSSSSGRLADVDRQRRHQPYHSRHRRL
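Detergent-free condition (0.00005% Triton X-100) in acetate buffer pH 5.5 with DTT. 1.5 nM enzyme and compound were pre-mixed 15 min, then 2 uM Z-FR-AMC substrate added; reaction progress from fluorescence change between first and third reads (60 s).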
SARS PLP yeast: inhibitors of SARS-CoV papain-like protease in yeast; 0.19% of 330,000 active; S. cerevisiae expressing SARS-CoV PLpro, growth rescue; control for the full effect not named in the record; Potency, µM (titrated, usually from 32.9 µM), for the others: top-dose activity, positive = growth rescue; AID 485353; active means well fitted rising curve with a large enough effect; inconclusive means small, poorly fitted or top-dose-only effect; inactive means no such curve, though single readings can be large or run the other way; note: 0% is about no effect; nearly all actives have a fitted effect of over 55% in size; growth read by luminescence after 48 h
Marburg entry inh: blocks Marburg virus binding to or entry into cells. Marburg virus pseudotyped entry inhibition, cell reporter; control for the full effect not named in the record; about a third of the inactives were read at about 46 µM. 1.8% of 300,000 active. Potency, µM (top dose mostly 37.8 µM), for the others: at the highest dose activity change, negative = inhibition, hits mostly inhibitors; active = well fitted inhibition curve with a large enough effect; inconclusive = small, poorly fitted or top-dose-only effect, or effect the other way; inactive = flat fitted curve, though single readings scatter; tested in HEK293 cells; about a fifth of its hits are not listed in these tables; note: % is set by controls: 0 for no effect and ±100 for the full control effect; luciferase read-out
LASV entry inh: blocks Lassa virus binding to or entry into cells; Lassa virus pseudotype entry inhibition, cell reporter; control for the full effect not named in the record; Potency, µM (top dose mostly 37.9 µM), inactives show at the highest dose activity change, negative = inhibition, hits mostly inhibitors; 1.2% of 300,000 active; AID 540256; active means well fitted inhibition curve with a large enough effect; inconclusive means small, poorly fitted or top-dose-only effect, or effect the other way; inactive means flat fitted curve, though single readings scatter; tested in HEK293 cells; note: % is set by controls: 0 for no effect and ±100 for the full control effect; nearly all actives have a fitted effect of over 50% in size; luciferase read-out
Cruzain Triton: inhibitors of Trypanosoma cruzi cruzain with detergent. P25779. Potency, µM, for inactives: max response, negative = inhibition, usual class: inhibitors. 0.43% of 200,000 active. AID 1478. purified cruzain, Z-FR-AMC fluorescence, 0.01% Triton;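 note: plate controls were neutral wells for no effect and buffer without enzyme for full effect; nearly all actives have a fitted effect of over 40% in size; top concentration of the series not given in the record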
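In this qHTS format, compounds are incubated with 1.5 nM cruzain for 15 min at room temperature before 2 uM Z-FR-AMC is added. Release of AMC is followed at 360/450 nm, and progress is taken as the 60 s fluorescence difference.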
NS1 inh: inhibitors of influenza NS1 protein function. S. cerevisiae slowed by influenza A NS1, growth recovery by OD600. Potency, µM (titrated, usually from 46.1 µM), for the others: top-dose activity, positive = more growth. 0.4% of 270,000 active. AID 2326; active means well fitted rising curve with a large enough effect; inconclusive means small, poorly fitted or top-dose-only effect; inactive means no such curve, though single readings can be large or run the other way; note: nearly all actives have a fitted effect of over 50% in size
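A cell-based growth assay was used: compounds that relieve NS1-induced slow growth of budding yeast raise OD600. Assay medium was yeast nitrogen base with ammonium sulphate and -URA supplement, pH 6.0, with 2% galactose.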
2A StopGo: FMDV 2A StopGo reporter, luciferase signal | AID 1159524 | 1.2% of 410,000 active | human cells with a luciferase reporter of 2A StopGo recoding; control for the full effect not named in the record | Potency, µM (doses to about 57.9 µM), without a hit: top-dose signal change, negative = less light; active = well fitted falling curve with a large enough effect; inconclusive = small, poorly fitted or top-dose-only effect; inactive = no such curve, though single readings can be large or run the other way; tested in HEK293T cells; note: % is set by controls: 0 for no effect and ±100 for the full control effect; nearly all actives have a fitted effect of over 45% in size; luciferase light after 4 h
RE007 growth inh: less growth of the S. pombe RE007 Vpr strain | S. pombe RE007 Vpr strain, BacTiter-Glo ATP luminescence, 24 h; control for the full effect not named in the record | Potency, µM (doses to about 92.2 µM), for inactives: at the highest dose activity change, negative = less growth | 0.21% of 360,000 active | AID 651644; active = well fitted falling curve with a large enough effect; inconclusive = small, poorly fitted or top-dose-only effect; inactive = no such curve, though single readings can be large or run the other way;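 note: % is set by controls: 0 for no effect and ±100 for the full control effect; nearly all actives have a fitted effect of over 50% in size; the assay follows cell death caused by Vpr and the record does not say whether a fall means rescue or toxicity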
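Fission yeast RE007 carrying one integrated HIV-1 vpr copy, seeded at OD 0.01 in PMG+AL medium with 23 nL pinned compound. Grown 24 h at 30 degrees; viability read by BacTiter-Glo luminescence after 5 min.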
An asterisk follows results filed as active; ? = inconclusive; . = no result given; & = joins results of further samples; [ ] = dose if it differs, or a comment. Unless noted, calls come from the whole dose curve; as a rule, active = well fitted curve in the direction sought with a large enough effect; inconclusive = small, poorly fitted or top-dose-only effect, or another doubt; inactive = no such curve, though single readings can be large; an effect the other way counts as inactive or inconclusive. Potency is the fitted concentration of half-maximal effect.

SMILES	Cruzain noTriton	SARS PLP yeast	Marburg entry inh	LASV entry inh	Cruzain Triton	NS1 inh	2A StopGo	RE007 growth inh
O=C(Nc1cccc(C(=O)N2CCN(c3cccc(Cl)c3)CC2)c1)c1nsc2ccccc12	?	.	.	?	-1.1%	.	-15%	.
COC(=O)c1ccc2c(=O)[nH]c(CN3c4ccccc4CC3C)nc2c1 (stereo not given)	?	4%	1%	?	-1.9%	?	1%	12%
CC(C)N(CC#CCC1(O)c2ccccc2-c2ccccc21)CCO	-10%	4%	?	-15%	5.2%	6%	.	-11%
CCOc1ccccc1N(C)C(=O)NCc1noc2ccccc12	-6%	.	.	3%[46.1 µM]	-0.8%	.	4%	.
CCN1C(c2ccccc2)C(C)C(=O)C(C)C1c1ccccc1 (stereo not given)	-1%	-44%	-19%	-19%	2.7%	-9%	?	1%
COc1ccc(S(=O)(=O)N2CC3CC(C2)c2cccc(=O)n2C3)cc1 (stereo not given)	.	0%	-26%[46.1 µM]	-9%	.	2%	-2%	-11%
CN(C)c1ccc(NC(=O)COC(=O)c2cc(Cl)ccc2[N+](=O)[O-])cc1	?	-4%	1%	14%	-16%	20%	-13%	?
COc1ccc(C(=O)NC(=S)NNC(=O)CNC(=O)C2CCCCC2)cc1	.	3%	5%[46.1 µM]	18%	.	.	25%	17%
O=C(CCc1ccccc1)NCCc1csc(-c2cccc(F)c2)n1	3%	.	.	5%[46.1 µM]	-7.1%	.	-13%	.
CCOC(=O)c1c(NC(=O)C2C3CCC(O3)C2C(=O)O)sc(C)c1-c1ccc(F)cc1 (stereo not given)	?	3%	7%[46.1 µM]	-2%	0.2%	26%	-8%	29%
Oc1c(C=NCc2ccc(F)cc2)[nH]c2ccc(Br)c(Cl)c12	?	?	.	.	-5.7%	-62%	.	.
Cn1cnnc1SC(C(=O)c1ccccc1)c1ccccc1 (stereo not given)	-3%	-2%	?	-2%	5.9%	-4%	6%	-1%
CCOC(=O)/C(C#N)=C/c1c(N2CCN(C)CC2)nc2ccccn2c1=O	.	-1%	1%[46.1 µM]	15%	.	-1%	-8%	-23%
COc1ccc(OC)c(Nc2nc(N)nc(CCl)n2)c1	.	-5%	-27%[46.1 µM]	?	.	5%	?	24%
CN(C)/C=C/C(=O)c1ccn(S(=O)(=O)c2ccccc2)c1	.	-4%	.	.	.	21%	-17%	28%
S=C1Nc2ccccc2Sc2ccc(Cl)cc21	-27%	17%	3%	24%	-3.3%	10%	-16%	6%
Cc1ccc(C)c(OC(=O)CSc2nnc(-c3ccc4c(c3)OCO4)o2)c1	-9%	.	2%[46.1 µM]	7%[46.1 µM]	-3.1%	.	0%	.
CC(=O)O[C@@H]1C[C@H]2C(C)=C[C@H]3OC(=O)[C@@H](C)[C@H]3C[C@H]2[C@]1(C)O	.	-8%	.	.	.	2%	-17%	-7%
Cc1onc(-c2c(F)cccc2Cl)c1C(=O)NC1CC1	.	0%	.	.	.	7%	-3%	5%
Cc1nc2c(c(=O)n1CCC1=CCCCC1)c1nc3ccccc3nc1n2/N=C/c1ccccc1	-12%	18%	26%	?	-1.2%	-2%	8%	21%
COc1ccc(Cl)cc1C(Nc1cccnc1)c1ccc2cccnc2c1O (stereo not given)	.	-8%	11µM*	?	.	-35%	-20%	?
CCOC(=O)Cc1csc(SCC(=O)N2CCN(c3ccc(OC)cc3)CC2)n1	-8%	-8%	8%	1%	-3.4%	-2%	-10%	4%
C/C(=N\NC(=O)Cn1nc(C)c([N+](=O)[O-])c1C)c1ccco1	.	-1%	12%[46.1 µM]	4%	.	2%	7%	-2%
Cc1ccc(NC(=S)NC(=O)c2ccc(-c3ccc(Cl)cc3)o2)c(O)c1	-26%	5%	?	-4%	0.2%	9%	0%	-7%
CCc1cccc(NC(=O)CSc2ncc3c(n2)-c2cc(Cl)ccc2N(C)S3(=O)=O)c1	-12%	.	.	11%[46.1 µM]	1.2%	.	-4%	.
O=C(C1CCCC1)N1CCN(S(=O)(=O)c2ccc(Cl)cc2)CC1	.	-2%	?	-5%[46.1 µM]	.	-8%	-4%	-16%
Cc1ccccc1CNC(=O)CN1C(=O)C2CCCCN2c2ccc(C(=O)N3CCCC3)cc21 (stereo not given)	7%	.	.	-17%[46.1 µM]	-2.4%	.	21%	.
CC1CCN(c2nc3c(c(=O)n(C)c(=O)n3C)n2CCSc2nc3ccccc3o2)CC1	2%	2%	-2%	.	0.3%	3%	.	.
O=C1CCCc2cc(S(=O)(=O)N3CCCC(C(=O)NCc4ccccc4)C3)ccc2N1 (stereo not given)	5%	.	.	?	-1.4%	.	?	.
Cc1n(CC(O)COCc2ccccc2)c2ccccc2[n+]1C (stereo not given)	-2%	-4%	17%	5%	-0.2%	2%	-14%	-4%
COC(=O)CN1C(=O)c2cccc3cccc1c23	.	-14%	?	21%[46.1 µM]	.	-9%	-6%	-5%
NC(=O)CN1CCN(C(=O)NC2CCCCC2)CC1	-10%	-1%	.	.	3.9%	1%	-3%	-7%
COC(=O)C(NC(C)=O)(Nc1ccc(Br)cn1)C(F)(F)F (stereo not given)	2%	-1%	-21%	5%	2.5%	-4%	?	6%
COc1ccc(CNC(=O)C(=O)c2cn(CC(=O)N3CCOCC3)c3ccccc23)cc1	.	-4%	.	.	.	-7%	23%	-4%
Nc1nc(NC(=O)c2cccc(S(=O)(=O)N3CCCCCC3)c2)nc(-c2ccccc2)n1	20µM*	1%	?	-2%	-0.3%	10%	-5%	-1%
CCc1c(C)sc2c1CCN(C(=O)Nc1cc(C)ccc1C)C2c1ccc(OC)cc1 (stereo not given)	?	.	.	1%[46.1 µM]	-2.6%	.	-3%	.
CCOc1ccc2nc(N3CCC(C(=O)Nc4c(C)cccc4C)CC3)sc2c1	-15%	.	?	.	0.1%	.	20%	.
COc1ccccc1NS(=O)(=O)c1cccc(C(=O)N2CCN(Cc3ccc4c(c3)OCO4)CC2)c1	.	1%	?	-11%	.	.	-2%	-12%
COc1ccc(CCNC(=O)C(=O)N2CCCC2)cc1OC	.	1%	.	?	.	2%	4%	5%
COc1ccccc1OCCC(=O)N1CCN(c2ccccc2OC)CC1	.	1%	9%[46.1 µM]	-2%	.	-4%	8%	4%
Cc1ccc(N2C(=O)CSC23C(=O)N(CC(=O)NCCc2ccccc2)c2ccccc23)cc1C (stereo not given)	-9%	.	.	-21%[46.1 µM]	-0.2%	.	1%	.
Cc1csc2ncnc(NNC(=O)c3ccc(Cl)cc3)c12	.	-1%	?	?	.	-5%	?	1%
COc1ccc(C(=O)NC2c3ccccc3-c3ccccc32)cc1	20µM*	26%	.	.	2.2%	4%	9%	16%
C/C(=N/NC(N)=S)c1ccc(Br)s1	.	-1%	?	?	.	-2%	-9%	1%
CCN(CC)C(=O)N1CCN(C)CC1	1%&-1%	2%	.	.	-0.3%&0.2%	11%	-4%&7%	4%[18.4 µM]
N#Cc1ccccc1CN1C(=O)c2ccccc2Sc2ccc(C(=O)OCc3ccco3)cc21	25µM*	.	.	-15%[46.1 µM]	-7.1%	.	11%	.
Cc1cc(C)n2nc(-c3ccc(F)cc3)nc2n1	-6%	4%	5%	?	6.9%	7%	42%[activator]	-11%
Cc1nc2ccc(NC(=O)CS(=O)(=O)c3ccccc3)cc2s1	.	8%	?	2%	.	.	37%[activator]	10%
O=C1CC(c2cccc([N+](=O)[O-])c2)c2c(ccc3ccccc23)N1 (stereo not given)	0%	3%	?	-12%	-9.1%	-3%	?	-10%
Cc1ccc(OCc2nc(-c3ccc(Cl)cc3)n[nH]2)cc1	-20%	-17%	-18%	?	-1.8%	-14%	18%	-2%
Cc1cccc(N2CC(C(=O)Nc3nnc(SCCN4CCOCC4)s3)CC2=O)c1 (stereo not given)	.	-1%	?	10%	.	-8%	?	3%
CCN(CC(=O)NCc1ccc(Cl)cc1)C(=O)c1cccc(S(=O)(=O)Nc2ccc(OC)cc2)c1	.	1%	?	?	.	.	16%	21%
COC(=O)c1sccc1S(=O)(=O)N1CCN(c2ccccc2OC)CC1	14%	.	.	11%[46.1 µM]	-3.4%	.	-18%	.
CC(=O)Nc1ccc(NC(=O)C(C)Sc2n[nH]c(=O)n2Cc2ccccc2)cc1 (stereo not given)	.	2%	-2%[46.1 µM]	8%	.	2%	-12%	0%
O=C(Nc1ccc(Nc2ccncc2)cc1)c1ccc(Nc2ccnc3ccc([N+](=O)[O-])cc23)cc1[N+](=O)[O-]	.	1%	.	.	.	8%	-18%	2%
CCOC(=O)/C(C#N)=C/Nc1ccccc1OC	-2%	5%	-2%	3%	-3.7%	-8%	40%[activator]	-8%
O=S(=O)(c1ccc(F)cc1)N1CCCCC1c1cccnc1 (stereo not given)	.	-6%	.	.	.	-64%	-13%	13%
O=C(O)CC[N+](=O)[O-]	6%&-7%	.	10%&10%&10%&0%&10%&10%&10%	-1%	2.3%&5.2%	0%	-30%&37%	-6%
CCOC(=O)c1csc(N)n1	.	-1%	18%&18%[46.1 µM]	-2%[46.1 µM]	.	6%	-9%	10%
Cc1ccc(C)c(N(C(=O)c2csnn2)C(C(=O)NC2CCCCC2)c2ccccn2)c1 (stereo not given)	.	1%	-21%[46.1 µM]	-17%	.	-5%	31%[activator]	-5%

(list continues)
SMILES	Cruzain noTriton	SARS PLP yeast	Marburg entry inh	LASV entry inh	Cruzain Triton	NS1 inh	2A StopGo	RE007 growth inh
Cc1cc(NC(=O)COC(=O)C2CC(=O)N(c3ccc(Cl)cc3)C2)no1 (stereo not given)	.	2%	-1%[46.1 µM]	2%[46.1 µM]	.	-1%	-5%	-20%
COc1ccc(-c2csc(NC(=O)C3=NN(c4ccccc4)C(=O)CC3)n2)cc1	.	-6%	?	?	.	.	20µM*	4%
COc1ccc(NC(=O)Cn2nnc(C(=O)Nc3ccccc3C)c2N)cc1	.	2%	?	-2%	.	.	-12%	3%
O=c1[nH]c(SCc2ccccc2)nc2c1cnn2-c1ccc(F)cc1	.	2%	.	.	.	6%	0%	-6%
Cc1ccc(C(=O)N2CCN(c3cccc(Cl)c3)CC2)cc1C	5%	-13%	?	-22%	-6.4%	-78%	0%	4%
Cc1c(NC(=O)C(C)OC(=O)c2cccc(S(=O)(=O)N(C)C)c2)c(=O)n(-c2ccccc2)n1C (stereo not given)	.	2%	?	?	.	.	13%	2%
Cc1c(Cl)cccc1NC(=O)N1CCN(Cc2cc(=O)n3nc(-c4ccccc4F)sc3n2)CC1	2%	.	.	37%[46.1 µM]	-0.3%	.	-29%	.

Source: PubChem
